High-throughput results as filed in PubChem BioAssay.
UCH37 DUB inh = blocks the human deubiquitinase UCH37 | actives 0.33% (n = 330,000) | purified proteasome/UCH37, Ub-AMC cleavage fluorescence | inhibition, % (no concentration beside the values);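 active = mean of two replicates above 20%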;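 also: 0% = compound-free wells with enzyme and 100% = wells lacking proteasome; stock transfer was 100 nL into about 20 µL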
Target sequence (Q9Y5K5 whole entry, looked up): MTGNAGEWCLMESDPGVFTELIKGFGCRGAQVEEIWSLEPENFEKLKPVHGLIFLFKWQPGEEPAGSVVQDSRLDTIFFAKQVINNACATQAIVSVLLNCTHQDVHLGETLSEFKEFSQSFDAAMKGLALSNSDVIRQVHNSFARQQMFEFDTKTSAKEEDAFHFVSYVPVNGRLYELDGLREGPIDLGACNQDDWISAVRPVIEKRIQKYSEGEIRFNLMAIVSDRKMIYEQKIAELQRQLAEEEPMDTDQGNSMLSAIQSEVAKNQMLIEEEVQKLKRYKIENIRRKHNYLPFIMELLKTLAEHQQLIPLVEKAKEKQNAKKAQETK
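Material: Human UCH37 enzyme supplied as purified proteasome complex | Schedule: 30 min compound-proteasome preincubation then 25 min substrate reaction, room temperature | Detection: AMC fluorescence from Ub-AMC cleavage, excitation 355 nm, emission 460 nm | Benchmarks: Wells without proteasome as full block, compound-free enzyme plus substrate as uninhibited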
E coli growth = blocks Escherichia coli growth | actives 0.21% (n = 330,000) | OD600 absorbance (test concentration not listed) | OD600, 23 h; hits give low values;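 active = OD600 absorbance below the run mean of sample wells minus 3.6 SD, in any replicate, cut at about 0.56 in these data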;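 also: stock transfer was 300 nL into about 60 µL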
* = called active by the depositor.

SMILES	UCH37 DUB inh	E coli growth
Cc1ccc(COc2ccc(C=NNC(=O)CN3CCCCC3)cc2)cc1	4.5	0.62
CC(C)(C)S(=O)(=O)C(C#N)=NNc1ccc(S(N)(=O)=O)cc1	19	0.71
O=C(NN=Cc1ccccn1)c1cc(-c2ccc(Cl)cc2)nc2ccccc12	0.4	0.62
O=C(NN=Cc1ccc(OC(F)F)cc1)C1=COCCO1	2.2	0.68
Cc1ccc(C)n1-c1ccc(C(=O)NN=Cc2ccncc2)cc1	6.2	0.71
Cc1csc(NN=Cc2ccc(O)c([N+](=O)[O-])c2)n1	20*	0.68
COc1ccccc1NS(=O)(=O)c1cccc(C(=O)NN=C(C)c2cccnc2)c1	1.2	0.62
O=C(O)c1ccc(NN=Cc2cccc(C(F)(F)F)c2)cc1	8.7	0.65
COc1cccc(C=NNC(=O)c2c(C)nc3ccc(Br)cn23)c1	5.1	0.67
CON=Cc1ccc(Oc2ccc([N+](=O)[O-])cc2[N+](=O)[O-])c(OC)c1	2.4	0.67
O=C(NN=Cc1ccc(N2CCCCC2)o1)c1ccccc1[N+](=O)[O-]	7.0	0.7
Cc1cc(C)n2nc(C(=O)NN=Cc3ccccc3C)nc2n1	3.6	0.69
CCOc1ccc(C=NNC(=O)CN2CCSCC2)cc1	5.9	0.68
Cc1ccc(-c2nnc(SCC(=O)NN=Cc3ccccc3C(=O)O)n2-c2ccc(C)cc2)cc1	2.0	0.66
CC(=NOCC(=O)Nc1ccc(F)c(F)c1F)c1cc2ccccc2o1	1.1	0.63
O=C(C(=NO)n1cncn1)c1ccc(Cl)cc1Cl	1.9	0.64
COc1ccc(C(C)=NNC(=O)CNC(=O)c2cccnc2)cc1OC	3.3	0.66
COc1cc(OC)c(C=NNC(=O)COc2cccc3cccnc23)c(OC)c1	0.2	0.63
Cc1cc(C(=O)NN=C2CCCC(=O)C2)c(C)o1	0.9	0.63
Cn1c(C=Nn2cnnc2)nc2ccccc21	-210	0.67
O=C(NN=Cc1cn(-c2cccs2)nc1-c1ccccc1)c1ccccc1Cl	5.3	0.7
Cc1ccc(-c2ccc(C=Nn3cnnc3)o2)cc1	-32	0.6
Cc1ccc(C=N/N=C2/NC(=O)CS2)o1	17	0.67
O=C1CSC(=NN=Cc2ccccc2)N1Cc1ccco1	5.7	0.69
O=C(NN=Cc1c(F)cccc1Cl)C1CC1	2.0	0.69
CC(=NNC(=O)c1ccccn1)c1ccc(Cl)cc1	2.8	0.68
CCC(=NNC(=O)c1c(-c2ccccc2)noc1C)c1ccc(C)o1	7.3	0.67
COc1cc(C=NNC(=O)C(C)Nc2n[nH]c(=O)[nH]c2=O)cc(OC)c1O (stereo not drawn)	-0.4	0.67
COc1cccc(C=NN2C(=O)CSC2=S)c1O	13	0.66
CSc1ccc(C=NN(C)S(=O)(=O)c2ccc(C)cc2)cc1	0.0	0.69
COc1cc(OC)c(OC)cc1C=Nn1c(C)nc2ccccc2c1=O	3.0	0.69
Nc1nnnn1N=Cc1ccccc1	4.4	0.67
CC(Cc1ccccc1)=NNC(=O)CNC(=O)c1cccc(Cl)c1	3.1	0.64
CC(=NNC(=O)CN(c1ccccc1)S(=O)(=O)c1ccccc1)c1ccccc1O	1.8	0.69
CCOc1ccc(Oc2c(C=NNC(C)=O)c(C)nn2-c2ccccc2)cc1	5.4	0.69
CC(C)(C)c1ccc(OCC(=O)NN=Cc2ccc(N3CCOCC3)cc2)cc1	-38	0.69
CCOC(=O)c1c(N=Cc2cccc([N+](=O)[O-])c2O)sc2c1CCC2	9.5	0.67
O=C(NN=Cc1ccc(OC2CSC2)cc1)c1ccc(CN2CCOCC2)cc1	-3.0	0.67
COC(=O)c1sc(SC)c2c1CC(C)(C)CC2=NO	1.4	0.64
Cn1cc(C=NNC(=O)COc2ccccc2[N+](=O)[O-])c2ccccc21	-0.8	0.66
Cc1cc(C)c2c(c1)C(=NNC(=S)Nc1ccc(F)cc1)CCC2	1.1	0.77
O=C(CCC(=O)Nc1ccc(F)cc1)NN=Cc1ccc(O)cc1O	-12	0.69
Cc1ccc2occ(C=NNC(=O)c3ccccc3C)c(=O)c2c1	-66	0.66
O=C(NN=Cc1ccc([N+](=O)[O-])s1)c1ccncc1	5.7	0.61
CC(=NNC(=O)CN(c1ccccc1)S(C)(=O)=O)c1ccccc1O	-0.3	0.67
COc1ccccc1N1CCN(N=Cc2cccc(O)c2)CC1	0.3	0.62
COc1ccc(C(=O)ON=C(c2ccccc2)c2ccncc2)cc1OC	0.5	0.7
CC(=NO)c1ccc2c(c1)OCCO2	2.5	0.68
Nc1nonc1-n1nnc(C(=O)NN=Cc2ccc(OCc3ccccc3F)cc2)c1CNc1ccccc1	3.3	0.69
O=C(NN=Cc1ccsc1)c1cc2ccccc2o1	-54	0.67
COc1ccc(C(=O)NN=C(C)c2cccc(NC(=O)c3ccc(F)cc3)c2)c(OC)c1	3.0	0.71
CN(N=Cc1ccc(Cl)cc1Cl)c1ncc(Cl)cc1C(F)(F)F	5.9	0.62
CC(=NNC(=O)C1COc2ccccc2O1)c1ccc(C)o1 (stereo not drawn)	3.9	0.67
Cn1ccsc1=NC(=O)Nc1cccc(C(F)(F)F)c1	0.4	0.65
CC(=O)c1ccc(NC(=O)c2cc3nc4c(c(C(F)(F)F)n3n2)CCCC4)cc1	-5.0	0.66
CCc1ccc(C=NNc2nn[nH]n2)cc1	3.3	0.66
CCOc1cc(C=NNC(=O)c2cccs2)ccc1OC(=O)N1CCOCC1	5.2	0.69
O=C(NN=Cc1ccc(N2CCOCC2)cc1)c1ccccc1NS(=O)(=O)c1cccs1	-47	0.71
Cc1ccc(OCC(=NO)C(C)(C)C)c([N+](=O)[O-])c1	5.8	0.69
COC(=O)NN=Cc1ccccc1OCc1ccccc1	3.5	0.7

(more compounds)
SMILES	UCH37 DUB inh	E coli growth
CC(=O)C(=NNc1cccc(Cl)c1)Sc1nnc(C(O)c2ccccc2)n1-c1ccccc1 (stereo not drawn)	0.7	0.67
O=C(COc1ccc(Cl)cc1[N+](=O)[O-])NN=Cc1cccs1	4.6	0.62
O=C(O)COc1ccc(C=NNC(=O)c2ccccc2Br)cc1	0.8	0.66
OCC(O)C=NNc1nc(N2CCCCC2)nc(N2CCCCC2)n1 (stereo not drawn)	3.8	0.71
CN(C)C=Nc1cnc(C(=O)c2ccc(Cl)cc2)n1C	7.7	0.71
COc1cccc(C=NNC(N)=S)c1OS(=O)(=O)c1ccccc1	3.5	0.71
Cn1cc(C(Cc2ccccc2)=NO)c2ccccc21	0.0	0.69
O=C(NN=Cc1ccsc1)c1ccccn1	5.6	0.69
O=c1nc(NN=C/C=C/c2ccccc2)cn[nH]1	-4.5	0.67
CC(=O)n1cc(C=NNC(=O)c2sc(C)nc2C)c2ccccc21	3.6	0.63
CC1=CC(C)[C@@H]2COC(c3ccc(O)cc3)C1C2C (stereo partly drawn)	2.3	0.63
CC(=NNC(=O)c1ccco1)c1cccnc1	1.4	0.67
CCOC(=O)c1cnc2ccc(C(=O)OC)cc2c1NCc1ccco1	-8.7	0.7
Nc1nonc1-n1nnc(C(=O)NN=Cc2cccc(Cl)c2)c1CN1CCCC1	1.6	0.64
CC(=NN(c1ccccc1)c1ccccc1)c1ccc(O)cc1	2.6	0.66
Cc1nc2ccccc2c(=O)n1N=Cc1ccc(F)cc1	0.9	0.66
CN(N=Cc1cc(Br)cc(Br)c1O)c1ccccc1	6.0	0.72
COc1cc(C=NNC(=O)c2ccc(Cl)cc2)ccc1OCC(=O)N1CC(C)OC(C)C1 (stereo not drawn)	6.9	0.69
CC(=NNc1ccccc1C(=O)O)c1cccs1	10	0.66
COc1cc(C=NNS(=O)(=O)c2ccc(C)cc2)ccc1OCc1cccc(C(=O)O)c1	6.0	0.69
CC(CCC(C)C)=NNS(=O)(=O)c1ccc(C)c([N+](=O)[O-])c1	3.7	0.7
CC(=O)Oc1ccc(C=NNC(=O)c2cc3c(ccc4ccccc43)o2)cc1	-90	0.69
CC(C)(C)C=NNC(=O)CNC(=O)c1ccc2c(c1)OCCO2	-1.0	0.67
Cn1cc([N+](=O)[O-])c(C(=O)NN=Cc2ccc([N+](=O)[O-])cc2)n1	12	0.71
Nc1nnn(CC(=O)NN=Cc2ccncc2)n1	3.3	0.67
CC(=NS(=O)(=O)c1ccc(C)cc1)N1CCN(S(=O)(=O)c2ccccc2)C1	5.4	0.66
Cc1cccc(CN(CC(=O)NN=Cc2cccs2)S(=O)(=O)c2ccc(Cl)cc2)c1	3.4	0.76
O=C(C=NO)NCCN1CCCCC1	0.0	0.69
Cc1ccc(N2CN=c3sc(=Cc4ccccn4)c(=O)n3C2)cc1	8.6	0.7
CC(=NO)C(=O)NCCN1CCCCC1	4.9	0.68

Compounds shown so far with two or more sulfur atoms (eight):
SMILES	UCH37 DUB inh	E coli growth
CC(C)(C)S(=O)(=O)C(C#N)=NNc1ccc(S(N)(=O)=O)cc1	19	0.71
COc1cccc(C=NN2C(=O)CSC2=S)c1O	13	0.66
CSc1ccc(C=NN(C)S(=O)(=O)c2ccc(C)cc2)cc1	0.0	0.69
COC(=O)c1sc(SC)c2c1CC(C)(C)CC2=NO	1.4	0.64
O=C(NN=Cc1ccc(N2CCOCC2)cc1)c1ccccc1NS(=O)(=O)c1cccs1	-47	0.71
COc1cccc(C=NNC(N)=S)c1OS(=O)(=O)c1ccccc1	3.5	0.71
CC(=NS(=O)(=O)c1ccc(C)cc1)N1CCN(S(=O)(=O)c2ccccc2)C1	5.4	0.66
Cc1cccc(CN(CC(=O)NN=Cc2cccs2)S(=O)(=O)c2ccc(Cl)cc2)c1	3.4	0.76

(further entries)
SMILES	UCH37 DUB inh	E coli growth
NC(=O)NN=Cc1sc(=O)n(-c2ccccc2)c1Cl	4.5	0.7
CCOC(=O)NN=Cc1ccc(C)o1	2.3	0.7
CCOc1ccc(-n2c(C)cc(C=NN(C)C)c2C)cc1	4.2	0.68
O=C(NN=Cc1ccc(Br)cc1)c1ccc(NC(=O)c2ccccc2)cc1	2.1	0.73
COc1ccc(C=NNC(=O)c2ccc3nc[nH]c3c2)cc1OC	9.3	0.64
Cc1ccc(CN2CCN(N=Cc3cc(Br)ccc3O)CC2)cc1	4.1	0.71
COc1ccccc1C=NN1C(=O)c2cccc3cccc(c23)C1=O	3.6	0.7
CCOC(=O)CC(C(C)=NO)c1ccccc1 (stereo not drawn)	-1.7	0.69
COc1ccc2c(c1)c(C(=O)NN=Cc1cccs1)c(C)n2C	5.9	0.7
CC(=NNC(=O)c1ccc(F)cc1)c1ccccn1	-2.0	0.51*
CC(=O)c1sc(NN=Cc2ccc(C(C)C)cc2)nc1C	-11	0.72
CC(CC(C)C)=NNc1ccc([N+](=O)[O-])cc1[N+](=O)[O-]	4.6	0.65
CC(=N/N=C1/NC(=O)C(CC(=O)Nc2ccc(C)c(Cl)c2)S1)C(C)(C)C (stereo not drawn)	1.8	0.63
C=CCOc1c(Br)cc(C=NNC(=O)Cc2ccc(C(F)(F)F)cc2[N+](=O)[O-])cc1OC	1.5	0.65
O=c1oc2ccccc2c(O)c1C=Nc1ccccn1	2.8	0.66

4 of the entries above in order of the UCH37 DUB inh value, rising.
SMILES	UCH37 DUB inh	E coli growth
CC(=N/N=C1/NC(=O)C(CC(=O)Nc2ccc(C)c(Cl)c2)S1)C(C)(C)C (stereo not drawn)	1.8	0.63
COc1ccccc1C=NN1C(=O)c2cccc3cccc(c23)C1=O	3.6	0.7
Cc1ccc(CN2CCN(N=Cc3cc(Br)ccc3O)CC2)cc1	4.1	0.71
CCOc1ccc(-n2c(C)cc(C=NN(C)C)c2C)cc1	4.2	0.68

Next part.
SMILES	UCH37 DUB inh	E coli growth
CC(=NN1C(=O)c2ccccc2C1=O)c1cccc([N+](=O)[O-])c1	2.8	0.71
Cc1c(NC(=S)NN=C/C=C/c2ccc([N+](=O)[O-])cc2)c(=O)n(-c2ccccc2)n1C	8.3	0.71
C/C(C=Nn1c(-c2cc(C)[nH]n2)n[nH]c1=S)=C\c1ccccc1	6.2	0.67
O=C(NN=Cc1ccc(F)c(F)c1)c1cccc(S(=O)(=O)N2CCCCC2)c1	-0.1	0.7
C/C(C=NNC(=O)Cc1cccs1)=C\c1ccccc1	3.3	0.72
O=C(CSc1nnc(SCc2cccc3ccccc23)s1)NN=C/C=C/c1ccccc1[N+](=O)[O-]	3.3	0.77
O=C(NN=Cc1ccc(OC(F)F)cc1)c1ccc(Br)cc1	0.6	0.69
CC(=NNC(=O)COc1ccccc1-c1ccccc1)c1cccnc1	1.1	0.7
CC(=NNC(=O)Cc1ccccc1[N+](=O)[O-])c1cccnc1	6.2	0.65
CCn1nc(C)c(C=NNC(=O)c2nc3nc(C)cc(C)n3n2)c1C	3.1	0.65
O=C(Oc1cccc(C=NNc2nc(N3CCOCC3)nc(N3CCOCC3)n2)c1)c1ccco1	3.3	0.63
C=CCNC(=S)NN=C(C)c1cccc(NC(C)=O)c1	4.6	0.67
CC(=NNC(=O)C1CC1)c1cccnc1	1.5	0.65
Cc1cc(NN=Cc2ccc([N+](=O)[O-])o2)nc2ccccc12	9.1	0.64
CN1CCN(N=Cc2cccc(Cl)c2Cl)CC1	5.7	0.73
COc1ccc2c(c1)CC(C(=O)Nc1ccc(Cl)cc1)C(=NO)O2 (stereo not drawn)	4.9	0.67
COc1ccc(C=NNC(=O)C(C)n2nnc3ccccc32)cc1OC (stereo not drawn)	4.5	0.75
Cc1ccc(C(=O)NN=Cc2ccc([N+](=O)[O-])s2)cc1	-0.5	0.74
Cc1sc2c(c1C)c(=O)nc1n2Cc2ccccc2-1	-145	0.71

A portion of the library; count on the stated rates, not on these rows.
